# Screening data (PubChem)
# BJeLR lethal: BJeLR cell viability loss | BJeLR (HRASV12) viability, CellTiter-Glo ATP luminescence, 48 h; reference of the scale not given here | inhibition, % (concentration not given with the values) | 0.17% of 300,000 active;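 active = replicate mean above 50%; inconclusive = above 50% but judged a plate artefact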;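 also: 50 nL library stock added to about 25 µL; numbers are from one replicate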
# PrP 5UTR inh: suppresses PrP 5' UTR mRNA reporter expression; cell-based PrP 5' UTR mRNA reporter, plate reader; inhibition, % (no concentration beside the values); 0.35% of 340,000 active; AID 488862;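 active = every replicate at 50% or more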;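 also: 0 = median of the neutral control wells; tested in H4 reporter cells; numbers are from one replicate; inactives centre near -14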
# RN4220 kill: kills Staphylococcus aureus RN4220; S. aureus RN4220 growth, OD600, 16 h; inhibition, % (test concentration not listed); 0.33% of 330,000 active; AID 1259311;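 active = z-score of -3 or lower and OD600 up to 0.18 on both plates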;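 also: plate controls were untreated cells for no effect and reference antibiotic for full effect; stock transfer was 100 nL into about 80 µL; one replicate is shown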
# Mtb hypoxia inh: reduces hypoxia-regulated biosensor signal in M. tuberculosis; fluorescence inhibition, % (concentration not given with the values); M. tuberculosis hypoxia-regulated fluorescent reporter, fluorescence; 0.1% of 300,000 active;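 active = 35 to 45% if threefold the growth effect, above 45% if 1.5-fold the growth effect; inactive = the rest, general growth blockers included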;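 also: wells of about 50 µL received 100 nL stock; 0% = vehicle wells and 100% = reference inhibitor wells; whole bacteria with a GFP reporter of the hypoxia response; strong numbers were not always called active; many hits fall short of the cut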
# Autofluor counter: compound fluorescence in toxin protease inhibitor counterscreen; compound autofluorescence counterscreen, microsphere flow cytometry; hits give high values; fluorescence intensity (concentration not given with the values); 3.1% of 360,000 active;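 active = at least 3 SD above the mean of all compounds, about 16000 in these data; inconclusive = too few beads counted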;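 also: 100 nL of 1 mM stock went into each well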
# ugtP null kill: compounds lethal to S. aureus RN4220 ugtP deletion mutant; OD600 growth, 16 h; some inactives read as strong as hits; growth inhibition, % (concentration not given with the values); 0.54% of 330,000 active; AID 1259309;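 active = z-score under -3 and OD600 up to 0.15 on both plates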;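 also: plate controls were untreated wells for no effect and antibiotic for full effect; wells of about 80 µL received 100 nL stock; the first replicate is given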
# Mtb hypoxia inh growth: further read-out of Mtb hypoxia inh, marked with its call; growth inhibition, %; measured here: M. tuberculosis growth (absorbance);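 0% = vehicle and 100% = reference antibiotic; read after six days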
# Active calls of the source: *; ? = inconclusive; / = not tested or not shown.
# The first 3 compounds (preview)
SMILES,BJeLR lethal,PrP 5UTR inh,RN4220 kill,Mtb hypoxia inh,Mtb hypoxia inh growth,Autofluor counter,ugtP null kill
COc1cccc(NC(=O)CN(C)C(=O)c2ccc(NC(=O)CC3SC(N4CCCC4)=NC3=O)cc2)c1 (centres undefined),/,-10,3.0,-5,4,3376,4
C#CCNC(=O)C1=CC(c2ccc(C#C)cc2)CC(OCCCCO)O1 (centres undefined),/,/,-0.4,9,9,/,-7
COc1c(C)cc(S(=O)(=O)NCCN2CCOCC2)c(C)c1C,1,-20,5.0,-1,7,3010,12

# All compounds of this part, from the first entry:
SMILES,BJeLR lethal,PrP 5UTR inh,RN4220 kill,Mtb hypoxia inh,Mtb hypoxia inh growth,Autofluor counter,ugtP null kill
COc1cccc(NC(=O)CN(C)C(=O)c2ccc(NC(=O)CC3SC(N4CCCC4)=NC3=O)cc2)c1 (centres undefined),/,-10,3.0,-5,4,3376,4
C#CCNC(=O)C1=CC(c2ccc(C#C)cc2)CC(OCCCCO)O1 (centres undefined),/,/,-0.4,9,9,/,-7
COc1c(C)cc(S(=O)(=O)NCCN2CCOCC2)c(C)c1C,1,-20,5.0,-1,7,3010,12
CN(C1CCS(=O)(=O)C1)S(=O)(=O)c1ccccc1 (centres undefined),2,-32,2.7,2,2,2125,7
C=CCNC(=S)N1CCN(c2cc3c(cc2F)c(=O)c(C(=O)O)cn3CC)CC1,9,-29,98*,6,3,4446,99*
O=C(NCc1cccs1)c1ccc(Cl)c(S(=O)(=O)N2CCCC2)c1,-2,-10,-4.2,1,-2,4330,-1
Cc1nn(Cc2ccc(C(=O)NN=Cc3ccncc3)o2)c(C)c1Cl,/,/,-0.6,0,5,/,1
O=C1CN(C(=O)CNCc2cccc(Cl)c2)c2ccccc2N1,3,-6,7.5,12,2,6195,4
CC(=O)Nc1ccccc1-c1nnn(CC(=O)Nc2ccc3c(c2)OCCO3)n1,-10,-29,-1.8,-6,-12,3283,-4
COc1cc(C=NNC(=O)c2[nH]nc3c2CCc2ccccc2-3)ccc1O,/,/,3.4,-6,3,/,-12
CC(C)Oc1ccc(Cn2c(=O)oc3ccccc32)cc1,8,-19,2.2,18,16,3820,9
COc1ccc(COC(=O)C2=C(C)NC(=O)NC2c2ccc(OC)cc2)cc1 (centres undefined),-17,8,5.7,-9,-8,3868,-1
Cc1ccc(S(=O)(=O)N2CCOCC2)cc1C(=O)OC1CCCCC1=O (centres undefined),3,-26,7.0,10,-3,4157,7
COc1ccc2[nH]c(CN3CCN(CCC(C)C)C(CCO)C3)c(C)c2c1 (centres undefined),-2,-29,1.0,5,11,3925,5
Cn1c(=O)[nH]c(=O)c2c1nc(CN1CCOCC1)n2Cc1ccccc1,-6,-13,-0.2,-1,-7,15936,2
CN(C)C(=O)C1C2NC(=S)N(c3ccc(Cl)cc3)C1(C)Oc1ccc(Cl)cc12 (centres undefined),-10,0,5.4,13,5,3029,2
COc1cc(C(Nc2ccccn2)c2c(NC(=O)c3ccco3)sc(C)c2C)cc(OC)c1OC (centres undefined),5,-13,3.1,-6,-1,2511,-2
COc1ccc(CN(C)C(=O)C2CCN(C(=O)Nc3ccccc3)CC2)cc1,-5,-25,2.0,-2,-7,5485,4
CC(NC(=O)Nc1ccccc1)C(c1cccs1)N1CCOCC1 (centres undefined),-5,-5,3.6,4,0,6257,-4
O=C(O)c1ccc(/C=N/Nc2ncc(C(F)(F)F)cc2Cl)cc1,-1,-28,/,/,/,4489,/
COc1ccc(-c2cc3ccccc3s2)cc1C1C2C=CCC(C)C2C(=O)N1Cc1ccccc1 (centres undefined),/,/,-6.1,8,10,/,3
CCOc1ccccc1N1CCN(C(=O)c2cccc(-c3ccc(O)cc3)c2)CC1,15,-6,0.8,0,8,3704,-5
Cc1ccc(S(=O)(=O)N(C)c2ccc(C(=O)N3CCCCC3)cc2)cc1,3,-4,9.4,13,4,?,6
Cn1ccc(C(=O)NN=Cc2ccccc2[N+](=O)[O-])n1,/,/,3.2,-7,9,/,6
Cc1cccc(C)c1OCCNC(=O)c1ccc2ccccc2n1,0,2,5.5,-9,-3,2086,-18
Cc1ccc(C)c2c1cc(C)c1nnc(SCC(=O)N3CCCc4ccccc43)n12,2,-4,1.0,-2,4,1955,7
CCc1cccc(CC)c1NC(=O)C[n+]1cccc(C(N)=O)c1,4,-40,-0.8,-2,-1,3937,-4
COc1ccc2[nH]cc(CCNC(=O)COc3cc(C)cc4oc(=O)cc(C)c34)c2c1,8,-15,3.8,/,/,5547,4
NC(=O)CSc1nccn1Cc1ccccc1,18,-37,7.7,4,4,3887,3
Cc1ccc(C2(C(F)(F)F)NC(=O)N3N=C4CCCCCN4C3=C2C#N)cc1 (centres undefined),4,-18,0.8,11,0,4185,3
C=CC1c2c(F)cccc2N(S(=O)(=O)c2ccc(C)cc2)C(c2ccc(C(=O)OC)cc2)C1(C#N)C#N (centres undefined),/,/,14,-6,5,/,-11
CN1CCN(C(=O)OCCOCCOC(=O)N2CCN(C)CC2)CC1,/,-20,1.1,6,0,4040,-2
CC(C)Cn1c(N)c(C(=O)CSc2nnc(C3CC3)n2C2CC2)c(=O)n(C)c1=O,/,-15,-0.8,4,1,5027,2
CC[C@]1(C(=O)OC)[C@H]2C(=O)N(Cc3ccccc3)C(=O)[C@H]2[C@H]2CN(C)C(=NCc3ccccc3)N21,/,41,2.1,-2,7,3602,0
Cc1ccc(NC(=O)COC(=O)CCc2nc3ccccc3c(=O)[nH]2)cc1Cl,-1,-24,5.1,0,5,4228,2
COc1cc(CNCC(C)C)c(Br)cc1OCC(=O)NCc1ccccc1,1,-39,3.5,11,13,16297*,7
Cc1ccc(-c2cc[n+](Cc3ccccc3)cc2)cc1,/,-21,2.2,1,11,4009,1
O=C(CCCc1ccccc1)Nc1ccnn1C1CCN(Cc2ccccc2)CC1,2,-2,4.1,-2,7,6206,1
Cc1cc(C)n2nc(C(=O)NNC(=O)c3ccccc3)nc2n1,-7,-25,6.3,9,3,3874,5
COC(=O)c1cc(Cl)c(NC(=O)c2cc3ccccc3o2)cc1OC,-5,-30,10,12,11,3393,-11
COc1cc(CNc2ccc3[nH]c(=O)[nH]c3c2)ccc1OCc1ccc(F)cc1,1,-14,4.1,3,2,4616,-3
NCC1OC(C23CC4CC(CC(C4)C2)C3)Cc2c1ccc(O)c2O (centres undefined),/,/,4.4,4,-6,/,-17
CCn1cc(C(=O)NCCC2=CCCCC2)c(=O)c2cc(S(=O)(=O)N(C)C)ccc21,-7,-36,2.4,/,/,5298,1
Cc1cccc(NC(=O)C(=O)NCC2CCCN2S(=O)(=O)c2cccs2)c1C (centres undefined),-3,-8,2.4,4,7,6389,-1
COCCCNC(=O)Nc1ccc(F)cc1F,14,-5,3.4,9,12,9011,2
O=C(Nc1ccc(O)c2c(=O)cc(-c3cccc(Cl)c3)oc12)c1ccccc1Cl,-16,-13,-5.2,0,9,3824,-7
CN(CCOc1cccc2ccccc12)Cc1ccccc1,-3,-24,3.2,1,0,4240,6
O=C(NCc1ccc(OC(F)(F)F)cc1)c1cccc2c1C(=O)c1ccc(N3CCC(Cc4ccccc4)CC3)cc1S2(=O)=O,/,-6,2.9,-10,13,4518,4
CC(C)(C)NC(=O)CCN(N=Cc1ccc([N+](=O)[O-])o1)C1=NS(=O)(=O)c2ccccc21,/,/,47,10,8,/,36
CC(=O)Nc1ccc(C(=O)COC(=O)CCc2ccccc2)c(F)c1,/,-3,1.7,22,5,6419,2
COc1ccc(/C=N/NC(=O)c2ccc(C)nc2)cc1O,-5,1,/,/,/,3794,/
Cc1cc(NC(=O)CSc2nccn2-c2cccc(Cl)c2)no1,-6,-20,6.9,3,7,7290,0
N#Cc1ccc(C#Cc2ccc3oc4ccccc4c(=O)c3c2)cc1,/,-17,7.0,5,12,4017,3
COc1ccc(OC)c(C2=NOC(C(=O)NCC3CCCO3)C2)c1 (centres undefined),0,-33,-2.3,-2,1,15476,2
COc1ccc(CC(=S)N2CCOCC2)cc1F,11,-1,1.0,-9,12,2393,2
O=C(NCc1ccco1)c1ccc2c(=O)n(Cc3ccco3)c(SCC(=O)N3CCCC3)nc2c1,/,-23,-5.3,-3,7,21141*,-5
CCCn1nnnc1NCc1ccccc1OCc1cccs1,-10,-18,6.5,6,4,5709,0
CCn1c(Oc2ccccc2C)nc2c1c(=O)n(C)c(=O)n2C,0,1,3.4,5,4,4141,5
Cc1ccc(S(=O)(=O)NCC(=O)N2CCOCC2)cc1,7,-46,1.8,4,5,6564,1
CC1CCCN(C(=O)CSc2nc3ccccc3o2)C1 (centres undefined),-9,-57,-6.2,3,1,8898,-7
# Next structures.
SMILES,BJeLR lethal,PrP 5UTR inh,RN4220 kill,Mtb hypoxia inh,Mtb hypoxia inh growth,Autofluor counter,ugtP null kill
CC1(C)CC(=O)C(C=NCCN2CCNCC2)=C(O)C1,2,-53,1.1,12,7,4408,3
CC1CN(C(=O)CSc2nc(-c3ccc(F)cc3)cs2)CC(C)O1 (centres undefined),-11,-11,-3.9,14,6,2806,-3
Nc1ccc(-c2nnc(-c3ccc(N)cc3)o2)cc1,-2,-53,-5.0,6,-1,3918,8
CCCc1cc(=O)oc2cc(OC(=O)CN3C(=O)NC4(CCCC4)C3=O)ccc12,20,-37,2.7,6,-5,4343,4
Cc1ccc(CSc2nnc(SCC(=O)NN=Cc3c(C)nn(-c4ccccc4)c3C)s2)cc1,/,/,8.2,9,4,/,-19
COc1ccccc1N(CC(=O)NCCSCc1ccco1)S(=O)(=O)c1ccccc1,1,-13,-1.1,12,4,3702,10
CCCN(C(=O)Cn1ncc2c(=O)oc3ccccc3c21)c1cccc(C)c1,-1,-26,-2.9,8,12,3938,-8
Cc1ccc(-c2noc(CCC(=O)Nc3cc(C)ccn3)n2)cc1,5,-18,-1.6,/,/,4250,-4
CCOC(=O)Nc1nc(C)c(C(=O)c2ccc(Cl)cc2)s1,2,1,-4.9,5,3,2487,4
O=C1CCc2ccc(NS(=O)(=O)c3ccc(F)cc3)cc2N1,-1,-4,7.8,3,0,2357,2
CCC1(C)CC2(CCCN(CCC(O)(c3ccccc3)c3ccccc3)C2)CCO1 (centres undefined),3,1,1.0,-2,3,4101,5
Cc1ccc(C(=O)N/C(=C/c2ccc(-c3ccc([N+](=O)[O-])cc3)o2)C(=O)NCCCN(C)C)cc1,0,12,-7.1,0,15,5117,-22

# Shown bar-delimited: part of the list above.
compound | BJeLR lethal | PrP 5UTR inh | RN4220 kill | Mtb hypoxia inh | Mtb hypoxia inh growth | Autofluor counter | ugtP null kill
Nc1ccc(-c2nnc(-c3ccc(N)cc3)o2)cc1 | -2 | -53 | -5.0 | 6 | -1 | 3918 | 8
CC1CN(C(=O)CSc2nc(-c3ccc(F)cc3)cs2)CC(C)O1 (centres undefined) | -11 | -11 | -3.9 | 14 | 6 | 2806 | -3

# Further records follow.
SMILES,BJeLR lethal,PrP 5UTR inh,RN4220 kill,Mtb hypoxia inh,Mtb hypoxia inh growth,Autofluor counter,ugtP null kill
O=C(Nc1ccc(S(=O)(=O)Nc2nccs2)cc1)C1CCCCC1,7,/,2.9,16,26,8905,7
O=C(NCc1ccccn1)C1CC(=O)N(C2CCCC2)C1 (centres undefined),11,2,5.4,3,0,6107,-4
CNc1nc(N2CCc3ccccc32)ncc1F,2,-170,8.3,/,/,10137,6
CC(NC(=O)Cn1nc(-c2ccccc2)ccc1=O)c1ccccc1 (centres undefined),1,-21,-0.2,2,3,4865,3
COc1ccc(OCc2nc(C#N)c(NCCCn3ccnc3)o2)cc1,4,-22,1.8,1,12,4054,-6
CC12CN3CC(C)(CN(C1)C31CCSCC1)C2=O,7,-9,3.7,5,-8,2735,-4
COc1ccccc1N1CCN(C(=O)CN(C)S(=O)(=O)c2cc(C)ccc2OC)CC1,-9,-22,4.2,8,-2,3556,8
COC(=O)c1ccccc1NC(=O)CSc1nnc(-c2cccnc2)n1N,-16,-3,-0.6,-3,3,4070,2
CCc1ccc(NC(=O)c2c(C(=O)Nc3ccccc3)sc3nc(C)cc(=O)n23)cc1,-9,-22,3.3,11,5,4123,11
Cc1cnc(C(=O)OCC(=O)c2csc(N3CCCCC3)n2)cn1,-4,-33,1.5,11,5,4274,-5

# Gathered by group, the compounds so far containing a COOH group (2)
SMILES,BJeLR lethal,PrP 5UTR inh,RN4220 kill,Mtb hypoxia inh,Mtb hypoxia inh growth,Autofluor counter,ugtP null kill
C=CCNC(=S)N1CCN(c2cc3c(cc2F)c(=O)c(C(=O)O)cn3CC)CC1,9,-29,98*,6,3,4446,99*
O=C(O)c1ccc(/C=N/Nc2ncc(C(F)(F)F)cc2Cl)cc1,-1,-28,/,/,/,4489,/
